KCNQ2 inh: KCNQ2 potassium channel inhibitors, primary screen, cell-based, CHO-K1, FluxOR thallium flux, B-score (AID 2156); O88943; 20 min; active compounds read low; only compounds with negative scores are shown here; some inactives read as strong as hits; B-score at 10 µM; actives 1.1% (n = 310,000);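 active means fluorescence ratio B-score at most minus 3 library SDs, with starting brightness B-score within 2 library SDs, cut at about -5.5 in these data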
Target sequence (O88943 whole entry, looked up): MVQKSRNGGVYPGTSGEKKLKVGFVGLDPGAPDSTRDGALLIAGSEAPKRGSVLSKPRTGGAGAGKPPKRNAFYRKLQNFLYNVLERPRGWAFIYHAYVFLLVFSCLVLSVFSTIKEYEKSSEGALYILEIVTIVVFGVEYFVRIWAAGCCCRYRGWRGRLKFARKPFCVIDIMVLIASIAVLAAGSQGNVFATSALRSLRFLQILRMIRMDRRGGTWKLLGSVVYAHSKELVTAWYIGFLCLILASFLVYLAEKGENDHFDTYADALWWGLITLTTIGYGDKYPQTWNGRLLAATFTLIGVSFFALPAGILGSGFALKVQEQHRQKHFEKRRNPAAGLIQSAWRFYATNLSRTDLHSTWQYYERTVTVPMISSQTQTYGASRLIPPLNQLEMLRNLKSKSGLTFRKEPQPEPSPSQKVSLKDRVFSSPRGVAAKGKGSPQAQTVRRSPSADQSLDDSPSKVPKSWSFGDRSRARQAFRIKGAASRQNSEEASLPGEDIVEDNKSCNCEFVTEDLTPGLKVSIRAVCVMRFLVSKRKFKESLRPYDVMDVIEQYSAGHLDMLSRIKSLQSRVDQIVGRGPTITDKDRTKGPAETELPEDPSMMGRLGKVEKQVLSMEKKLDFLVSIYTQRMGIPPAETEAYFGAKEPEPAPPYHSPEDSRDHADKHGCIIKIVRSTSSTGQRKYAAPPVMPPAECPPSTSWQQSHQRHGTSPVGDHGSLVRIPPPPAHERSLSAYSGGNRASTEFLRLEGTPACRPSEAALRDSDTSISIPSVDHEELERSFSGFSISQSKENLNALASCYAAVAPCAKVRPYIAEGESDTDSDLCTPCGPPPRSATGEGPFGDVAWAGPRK
KCNQ2 inh baseline: also measured in KCNQ2 inh; calls as there; B-score; measured here: initial fluorescence intensity artifact check;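 brightness before thallium and not channel activity; 0 = typical well and far values either way flag optical interference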
Starred values were filed as active, the others as inactive; i = inactive. Not all compounds are listed, so the mix of outcomes need not match the whole.

Order of results: KCNQ2 inh, KCNQ2 inh baseline
CCOC(=O)c1sc(=NC(=O)COc2ccc(Cl)cc2)n(C)c1C
→ i, -2.4
CCOC(=O)c1sc2nc3c(SCCC(=O)O)cc(C(=O)c4cc(OC)ccc4O)cn3c(=O)c2c1C
→ i, 1
COc1ccccc1CNC(=O)COc1cccnc1[N+](=O)[O-]
→ i, -0.34
c1ccc2[nH]c(-c3ccnc4ccccc34)nc2c1
→ i, -0.12
Cc1ccc(C(=O)/C=C\NCc2ccccc2)cc1
→ i, 1
O=C(Cn1cc(CCO)nn1)N1CCNCC1
→ i, -0.82
O=C(Nc1ccc(Oc2ccccc2)nc1)C1CCCCN1Cc1cccc(OCCO)c1 (stereo not drawn)
→ i, -0.57
CCOC(=O)CC1COCCN1C(=O)c1ccc2oc(Cc3ccccc3)nc2c1 (stereo not drawn)
→ i, 0.14
CSc1nnc(-c2cc(Br)ccc2N=Cc2c(C)[nH]n(-c3ccccc3)c2=O)c(=O)[nH]1
→ i, 0.08
CC(=O)Nc1nc(Cn2nnc(-c3ccc4c(c3)OCO4)n2)nc(N(C)C)n1
→ i, 0.28
COCCCNc1nc2c(-c3ccc(C)cc3)nnn2c2ccccc12
→ i, -1
O=C(O)c1ccccc1/C=N/NC(=O)C1CCCC1
→ i, -0.16
CN(C)c1cccc(NC(=O)NC2(C)CCS(=O)(=O)C2)c1 (stereo not drawn)
→ i, -0.86
CCOC(=O)C1=C(c2ccccc2)OC(N)=C(C#N)C1c1cccs1 (stereo not drawn)
→ i, 0.02
COc1cc(S(=O)(=O)Nc2ccccc2)ccc1N=Cc1c(C)[nH]n(-c2ccc(C)cc2)c1=O
→ i, 2.3
CC1=C(C(=O)OC(C)C)C(c2cccs2)NC(=S)N1 (stereo not drawn)
→ i, 0.45
Cc1ccc(NC(=O)CN(C)C(=O)c2ccc(Cl)nc2)cc1
→ i, 1.2
COc1ccc(N2CC(C(=O)Nc3nc4ccc(OC)cc4s3)CC2=O)cc1 (stereo not drawn)
→ i, 0.02
COCCCNC(=S)N1CCN(c2ccc([N+](=O)[O-])cc2)CC1
→ i, 1.1
CCCCC(=O)N(Cc1ccc2c(c1)OCO2)Cc1nc2ccccc2c(=O)[nH]1
→ i, 0.82
C=COCCn1c(=N)n(CCC)c2ccccc21
→ i, 0.58
Cc1ccc(S(=O)(=O)NCCOc2nc(N(C)C)nc(N3CCOCC3)n2)cc1
→ i, -0.7
CN(Cc1ccccc1)C(=O)COC(=O)C1=NNC(=O)CC1
→ i, 0.55
COc1ccc(N2C(=O)NC3CC2(C)Oc2ccccc23)cc1OC (stereo not drawn)
→ i, 0.63
Cc1ccc(SCCNS(=O)(=O)c2ccc3c(c2)OCCO3)cc1
→ i, -2.1
COc1cc2c(cc1NC(=O)COC(=O)/C=C/c1ccc([N+](=O)[O-])cc1)oc1ccccc12
→ i, -0.23
O=C(CSc1ccc2c(c1)OCCO2)Nc1ccc(Cl)cn1
→ i, 1.9
CS(=O)(=O)Nc1nnc(C2CCCC2)s1
→ i, 0.83
COc1cc(S(=O)(=O)Nc2ccccc2C)ccc1NC(=O)c1ccncc1
→ i, -2.1
COC(=O)CSc1nc(C)c(Oc2ccccc2)c(=O)[nH]1
→ i, -1.1

Continued, overlapping the part above by two compounds.
Order of results: KCNQ2 inh, KCNQ2 inh baseline
COc1cc(S(=O)(=O)Nc2ccccc2C)ccc1NC(=O)c1ccncc1
→ i, -2.1
COC(=O)CSc1nc(C)c(Oc2ccccc2)c(=O)[nH]1
→ i, -1.1
CCC(C(=O)NCc1ccco1)N(C(=O)CNS(=O)(=O)c1ccc(F)cc1)c1ccccc1F (stereo not drawn)
→ i, 2.2
O=C(OCC(=O)N1CCCC1=O)c1ccc(Cl)cc1[N+](=O)[O-]
→ i, -0.23
Cc1ccc(OCc2cc(C(=O)N3CCN(C)C[C@@H]3c3ccccc3)no2)cc1C
→ i, -2.5
CCOC(=O)c1cnc(SC)nc1Oc1cccc(NC(=O)c2cccc(Cl)c2Cl)c1
→ i, -3.5
COc1ccc(C(C)=O)c2c(O)cccc12
→ i, 0.07
COc1ccc(CNC(=O)C/C(C)=N/NC(=O)C(c2ccccc2)c2ccccc2)cc1
→ i, -0.03
Cc1nc(C(C)NC(=O)c2cc(COc3ccc(C)c(C)c3)on2)c(C)s1 (stereo not drawn)
→ i, 2.5
CCC(C)(c1ccc(C=O)s1)c1ccc(C=O)s1
→ i, -0.37
Cc1cccc(C(=O)NCC(c2ccco2)N2CCc3ccccc32)c1 (stereo not drawn)
→ i, -2.6
C=CCNC(=O)NC(=O)COC(=O)c1nc2nccc(C)n2n1
→ i, 0.85
CCCCc1ccc(NS(=O)(=O)c2cccs2)cc1
→ -5.9*, 0.59*
COc1ccc(NC(=O)C(=O)NCCN2CCN(C(=O)c3ccco3)CC2)cc1
→ i, 0.37
CN1/C(=C\C(=O)COC(=O)c2nccnc2N)C(C)(C)c2ccccc21
→ i, -0.04
CC1=NN(C(=O)COc2ccc(C)c(C)c2)C(O)(c2ccccc2)C1 (stereo not drawn)
→ i, -1.1
C/C(CC(=O)Nc1ccccn1)=N\NC(=O)c1cccc(C)c1
→ i, 0.63
O=C(c1cccc(F)c1)N1CCN=C1SCc1cccnc1
→ i, -0.13
CCOC(=O)c1ccccc1NS(=O)(=O)c1ccc(C)cc1
→ i, 0.11
Cc1cc(N(CC(=O)O)S(C)(=O)=O)ccc1Br
→ i, -0.66
O=C(Nc1ccccc1-c1ccccc1)NC1CCN(C(=O)N2CCOCC2)CC1
→ i, 0.62
Cc1ccc(C(C(=O)NC2CCCCC2)N(CC2CCCO2)C(=O)CCCC(=O)Nc2ccccn2)cc1 (stereo not drawn)
→ i, 1.9

Other structures
SMILES	KCNQ2 inh	KCNQ2 inh baseline
CNc1nc(-c2c(C)n(C)c3ccc(OC)cc23)cs1	i	0.01
COC(=O)c1scc(S(=O)(=O)C(C)(C)C)c1N	i	0.44
COc1cc(C(N)=O)cc(Cl)c1OCc1ccccc1	i	0.43
Cc1cc(C)nc(NC2=NCCN2C(=S)Nc2ccc(C)c(C)c2)n1	i	0.21
CC(C)NC(=O)c1ccc2c(c1)N(CC(=O)N1CCCC1)C(=O)C(C)(C)O2	i	2.4
COc1ccc(Cl)cc1S(=O)(=O)N1CCCC(C(=O)NCc2ccncc2)C1 (stereo not drawn)	i	-0.38
O=C(O)c1ccc(NC(=S)NC(=O)c2cccc(COc3ccccc3)c2)cc1	i	-0.22
Cc1ccc(NC(=O)CNC(=O)c2ccco2)c(Cl)c1	i	0.66
Cc1ccc(Sc2ncccc2C(=O)O)c(C)c1	i	-0.43
COC(=O)CNc1cc(S(=O)(=O)N2CCCCC2)ccc1Oc1cccc(C)c1	i	-0.75
O=C(O)C/C(=C\c1cc2c(cc1Br)OCO2)c1nc2ccccc2s1	i	0.03
O=C(/C=C/c1ccccc1[N+](=O)[O-])N1CCN(c2ccc(F)cc2)CC1	i	-0.5
CCOC(=O)N1CCC(N2C(=O)c3ccccc3C2Nc2ccc(C)cc2)CC1 (stereo not drawn)	i	-1.2
Nc1nc2c(s1)CCc1c-2cnn1-c1ccccc1	i	-1.4
CCOc1ccc2ccccc2c1CNCCN1CCOCC1	i	-0.56
CCOC(=O)CCc1c(C)c2ccc(OCc3nn[nH]n3)cc2oc1=O	i	-0.69
COc1cc(Cl)cc(C2NC(=O)NC(C)=C2C(C)=O)c1OCC(=O)O (stereo not drawn)	i	1.7
CCCc1cc(=O)c2c(O)cccc2o1	i	-0.04
Cn1c(=O)c2c(nc3sccn32)n(C)c1=O	i	0.15
S=c1[nH]nc(Cc2ccccc2)n1Cc1ccco1	i	1.8
CCOc1ccc(NC(=O)COC(=O)CCCc2c[nH]c3ccccc23)cc1	i	-0.08
O=C(NCc1ccccn1)NC12CC3CC(CC(C3)C1)C2	i	-0.47
CC(C)N(CC(N)=O)C(=O)c1sc2cc(F)ccc2c1Cl	i	0.34
COc1ccc(NC(=O)c2sccc2SCc2cccc(C(F)(F)F)c2)cc1	i	1.4
COC(=O)c1ccc(NC(=O)CSc2nccn2CCc2ccccc2)cc1	i	-0.81
Cc1ccc(S(=O)(=O)C2(C(=O)Nc3ccc(Br)cc3)CC2)cc1	i	-0.77
Cc1ccc2nc(SC(C)C(=O)Nc3cccc([N+](=O)[O-])c3)[nH]c2c1 (stereo not drawn)	i	0.42
Cn1c(SCC(=O)N2CCOCC2)nnc1-c1ccccc1	i	-0.52
CC12CCC(C/C1=N\OC(=O)c1ccc(F)cc1)C2(C)C (stereo not drawn)	i	0.33
CCN(CC)CCOC(=O)c1ccc2c(c1)OCCO2	i	-0.53

3 of the compounds above, with the structure last:
KCNQ2 inh	KCNQ2 inh baseline	structure
i	0.66	Cc1ccc(NC(=O)CNC(=O)c2ccco2)c(Cl)c1
i	-0.04	CCCc1cc(=O)c2c(O)cccc2o1
i	-0.5	O=C(/C=C/c1ccccc1[N+](=O)[O-])N1CCN(c2ccc(F)cc2)CC1

(cont.)
SMILES	KCNQ2 inh	KCNQ2 inh baseline
O=C(O)CC12CC3CC(C1)CC(n1ncc(NCc4ccc(F)cc4Cl)c(Cl)c1=O)(C3)C2	i	0.64
O=C1[C@@H]2Cc3c([nH]c4ccccc34)C(c3ccccc3)N2C(=O)CN1C1CCN(Cc2ccccc2)CC1 (stereo partly drawn)	i	-1.4
CCC(=O)c1ccc(OCC(=O)NCCC2=CCCCC2)c(OC)c1	i	-1.4
CCOc1cccc(C2C(C(=O)c3ccco3)=C(O)C(=O)N2Cc2ccncc2)c1 (stereo not drawn)	i	0.94
O=C(CSc1ccccc1)Nc1nnc(/C=C/c2ccccc2)s1	i	0.01
CCN(CC(=O)NC(=O)NCc1ccco1)Cc1nc2ccccc2c(=O)[nH]1	i	0.16
O=C(CNC(=O)N1CC(=O)Nc2ccccc21)Nc1ccc(Cl)cc1	i	-1.9
O=C(CNC(=O)c1ccccc1Br)N/N=C/c1ccccc1O	i	-1.3
O=C(NCc1ccc(F)cc1)C1CCCN(S(=O)(=O)c2ccc(-n3cnnn3)cc2)C1 (stereo not drawn)	i	2.9
COC(=O)c1nn(-c2ccccc2)c(Cl)c1/C=N/OCc1c(Cl)cccc1Cl	i	1.4
CC(C)(C)c1cc(C(=O)N/N=C/c2ccc([N+](=O)[O-])s2)n[nH]1	i	-0.71
COc1ccc(/C=C/C(=O)C2CC2)cc1COc1cccc(C)c1C	i	0.72
Cc1ccccc1-c1cc(C(=O)Nc2nc3c(s2)CCCC3)c2ccccc2n1	i	1.2
CCN(CC)P(=O)(C(NC(=O)OC)C(F)(F)C(F)(F)C(F)(F)C(F)F)N(CC)CC (stereo not drawn)	i	-0.67
COc1cc(/C=C2/SC(=S)N(Cc3ccccc3)C2=O)cc(Cl)c1O	i	8.1
CCOc1ccc(S(=O)(=O)Nc2cc(S(=O)(=O)N(CC)CC)ccc2N2CCCC2)cc1	i	0.01
O=C(c1ccc(CS(=O)(=O)c2ccccc2)o1)N1CCOCC1	i	0.1
COc1ccc(-c2ocnc2C(=O)Nc2ccccc2N2CCCCC2)cc1	i	2
Cc1onc(-c2ccccc2Cl)c1C(=O)N1CCN=C1SCc1cccnc1	i	2.2
CO/N=C/C1C(=O)NN=C1c1ccccc1 (stereo not drawn)	i	1.2
Cn1c(=NCC(O)COc2ccccc2)sc2ccccc21 (stereo not drawn)	i	-0.07
Cc1ccc(/C=C(\NC(=O)c2ccc(C)cc2)C(=O)NCCCn2ccnc2)cc1	i	0.51
COC(=O)C1=C(C)N(c2ccc(C)c(C)c2)/C(=C/c2ccco2)C1=O	i	-0.06
CCC(C)(C)NC(=O)CN(C(=O)CCC(=O)Nc1ccccn1)c1ccc2c(c1)OCO2	i	0.51
Cc1c(OC(C)C(=O)NCc2ccncc2)ccc2c3c(c(=O)oc12)CCC3 (stereo not drawn)	i	0.25
Cc1cc(C)c2c(N)c(C(=O)Nc3c(C)n(C)n(-c4ccccc4)c3=O)sc2n1	i	-0.49
COc1cc(NS(=O)(=O)N2CCCC2)cc(OC)c1OC	i	1
CC1Oc2ccccc2N(CC(=O)NCC2CCCO2)C1=O (stereo not drawn)	i	0.78
CCCCN1CNC(=S)N(CCc2ccccc2)C1	i	1.6
CCOc1ccc(CCNC(=O)CN2C(=O)c3cccnc3Oc3ccc(Cl)cc32)cc1	i	0.13
O=C(/C(=N\O)n1cncn1)c1ccc(Cl)cc1Cl	i	0.09
COC(=O)c1cc(Cl)c(NC(=O)c2ccc(C(C)(C)C)cc2)cc1OC	i	-0.34
CN(C)CCC#CC(O)(c1ccccc1)c1ccccc1	i	0.21
COC(=O)c1cccc(Cn2c(Cl)c(/C=N/NC(=O)c3ccccc3Cl)sc2=O)c1	i	-0.42
O=C(COC(=O)c1cc(Cl)nc2ccccc12)c1ccc(Cl)cc1	i	0.06
CCOP(=O)(O)c1ccccc1OCCCCCOc1ccccc1P(=O)(O)OCC	i	-3.1
O=C(OCc1nc2ccccc2s1)C1CCN(S(=O)(=O)c2cccs2)CC1	i	-1.2
CCN(CC)c1ccc(N2C(=O)/C(=C/c3cccnc3)SC2=S)cc1	i	0.96

An excerpt from above in order of formula weight, rising:
SMILES	KCNQ2 inh	KCNQ2 inh baseline
CN(C)CCC#CC(O)(c1ccccc1)c1ccccc1	i	0.21
O=C(/C(=N\O)n1cncn1)c1ccc(Cl)cc1Cl	i	0.09
COC(=O)c1cc(Cl)c(NC(=O)c2ccc(C(C)(C)C)cc2)cc1OC	i	-0.34
COC(=O)c1cccc(Cn2c(Cl)c(/C=N/NC(=O)c3ccccc3Cl)sc2=O)c1	i	-0.42
CCOP(=O)(O)c1ccccc1OCCCCCOc1ccccc1P(=O)(O)OCC	i	-3.1

High-throughput results: PubChem BioAssay, Johns Hopkins Ion Channel Center
